Screening results as filed in PubChem BioAssay.
Mtb betalactam: beta-lactam sensitization of Mtb H37Rv | M. tuberculosis H37Rv growth with meropenem, percent inhibition; hits of this screen are not shown here | inhibition, % at 25 µM | 330,000 compounds, 0.27% hits | AID 434955;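 active means about 74% or more and at least 40 points above the plate without the antibiotic, then above 30% in a dose series; inconclusive means first-round hits that could not be retested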;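 further: growth measured after seven days incubation then overnight dye step; 0% = bacteria only wells and 100% = bacteria with antibiotic; twin plates without the antibiotic show which effects depend on it; some results filed as inactive read as strong as hits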
Mtb growth: M. tuberculosis H37Rv growth inhibitors, H37Rv strain (AID 1626). M. tuberculosis H37Rv growth inhibition; higher % means a stronger effect. inhibition, % at 10 µM; hits with a dose series show IC50 in µM. 220,000 compounds, 0.95% hits;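 active means confirmed in a dose series; inconclusive means inhibition above 80% but not taken into the dose series; inactive means below 80% or under 30% at every dose of the series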;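 further: bacteria incubated seven days before Alamar blue readout; 0% = bacteria only wells and 100% = bacteria with antibiotic wells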
YopH inh: YopH (Yersinia) phosphatase inhibition; fluorescence Ex485/Em525; inhibition, %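 (about 10 µM by stock and volumes)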; 140,000 compounds, 0.16% hits; AID 898;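 active means inhibition of 50% or more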;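 further: controls were vehicle for no effect and minimum signal wells for full effect; inactives centre near -20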
Arbovirus anti: antivirals against arbovirus infection; arbovirus infection cell-based antiviral screen; inhibition, % at 10 µM; 200,000 compounds, 0.37% hits;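 active means inhibition from about 30%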;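 further: bluetongue infection of BSR cells; cell survival read as ATP light after 72 h; 0% = infected wells without compound and 100% = uninfected wells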
RecA intein inh: inhibitors of M. tuberculosis RecA intein splicing. P9WHJ3. 290,000 compounds, 0.75% hits. cell-free RecA intein splicing, fluorescence. inhibition, %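 (about 9 µM by stock and volumes)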; in the data active means inhibition above about 30%; inconclusive means no clear call, values can overlap the other calls;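 further: 0% = vehicle wells and 100% = reference inhibitor control wells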
Target sequence (P9WHJ3 whole entry, looked up): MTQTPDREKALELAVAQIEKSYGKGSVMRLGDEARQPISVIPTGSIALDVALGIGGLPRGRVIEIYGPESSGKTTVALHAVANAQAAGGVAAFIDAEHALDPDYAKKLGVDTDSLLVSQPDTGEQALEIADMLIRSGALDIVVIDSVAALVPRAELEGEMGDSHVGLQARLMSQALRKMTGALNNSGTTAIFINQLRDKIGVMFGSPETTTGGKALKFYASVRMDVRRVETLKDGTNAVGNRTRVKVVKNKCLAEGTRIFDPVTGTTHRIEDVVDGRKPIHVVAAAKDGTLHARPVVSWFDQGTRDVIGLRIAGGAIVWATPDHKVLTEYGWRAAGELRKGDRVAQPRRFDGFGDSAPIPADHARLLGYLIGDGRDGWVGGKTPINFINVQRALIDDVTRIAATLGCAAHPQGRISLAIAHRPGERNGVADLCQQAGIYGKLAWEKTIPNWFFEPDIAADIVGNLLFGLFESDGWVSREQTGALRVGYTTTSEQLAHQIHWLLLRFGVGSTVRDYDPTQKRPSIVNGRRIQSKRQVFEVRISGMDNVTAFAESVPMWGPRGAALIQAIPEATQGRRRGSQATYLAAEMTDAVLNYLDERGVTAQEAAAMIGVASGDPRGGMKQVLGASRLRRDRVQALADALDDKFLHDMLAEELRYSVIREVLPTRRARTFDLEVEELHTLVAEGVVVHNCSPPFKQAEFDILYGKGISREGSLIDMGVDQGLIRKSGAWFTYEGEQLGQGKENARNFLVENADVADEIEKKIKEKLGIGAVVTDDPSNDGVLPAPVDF
Arbovirus anti repeat: further read-out of Arbovirus anti, marked with its call; inhibition, %; measured here: 10K subset replicate screen; many hits read low in the repeat;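 first of two repeat runs on a subset; 0% = infected and 100% = uninfected wells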
Numbers without * were called inactive; ? = inconclusive; · = no result given. An excerpt; count on the stated rates, not on these rows.

SMILES	Mtb betalactam	Mtb growth	YopH inh	Arbovirus anti	RecA intein inh	others
COc1cc2ccccc2cc1C(=O)Nc1ccc(NC(=O)c2cccs2)cc1	0.4	·	·	·	-1.3
Cc1ccc(NC(=O)CCC(C(=O)O)N2C(=O)c3ccccc3C2=O)cc1 (stereo not drawn)	-8.4	-4.0%	-34.5	7.0	3.1
Cc1ccccc1N1C(=O)CC2(CCCC2)CC1=O	-0.9	·	·	1.4	2.1
COc1cccc(Oc2cncnc2-c2ccc(OC)cc2O)c1	2.5	5.2%	-30.1	-2.6	17.3
Cc1ccccc1-n1c(SCc2ccccn2)nc2n[nH]c(C)c2c1=N	4.2	9.0%	-1.2	1.3	2.6
Cc1cc(=O)oc2cc(OCC(=O)OCC(=O)Nc3ccccc3C(C)C)ccc12	3.4	-9.5%	-24.4	1.9	0.1
COc1cnc(-c2ccccc2)nc1Oc1ccc(C(C)(C)C)cc1	1.8	1.1%	-31.5	-13.0	0.5
CC1CCCN(C(=O)CCCC(=O)N2CCCC(C)C2)C1 (stereo not drawn)	-7.5	·	·	·	-1.7
COc1cccc(OC)c1C(=O)NCCc1ccccc1	-10.5	·	·	·	2.2
N#CCC(=O)N/N=C/c1ccc(Cl)cc1	79.5	-4.7%	·	·	0.7
Cn1c(=O)cc(N)n(-c2ccccc2)c1=O	6.8	·	·	·	-2.7
Cc1ccc(C(=O)Nc2ccc(S(=O)(=O)NC3=NCCCCC3)cc2)c(C)c1	-3.8	·	·	·	-1.1
Cc1ccc(N2C(=O)c3ccccc3NC2(C(=O)O)c2ccccc2)cc1Cl (stereo not drawn)	3.2	·	·	·	0.6
CCOC(=O)c1cc(C(C)(C)C)n(CCCN2CCOCC2)c1C	1.6	-18.3%	·	·	·
COc1ccc(C(=O)NC2CCCc3c2cnn3-c2cc(F)cc(F)c2)c(OC)n1 (stereo not drawn)	3.3	·	·	·	-0.3
Cc1csc(N(C(=O)c2cccc(S(=O)(=O)N(C)C)c2)c2ccccc2)n1	0.8	6.0%	-35.6	-8.4	4.0
Cc1ccc(NC(=O)c2cnn(-c3ccccc3)c2C)cc1	7.6	·	·	·	0.2
O=C(c1cccc(Cl)c1)N1CCC(C(=O)N2CCN(Cc3ccccc3)CC2)CC1	?	·	·	·	2.4
CCCCCCC(=O)Nc1nc(C)c(-c2csc(Nc3cccc(OC)c3)n2)s1	43.0	48.2%	-6.0	-8.9	4.5
COc1ccccc1CNC(=O)c1cnc2ccccn2c1=O	-9.2	-0.8%	-37.5	0.2	1.5	Arbovirus anti repeat=1.1
CN1C(=O)/C(=C2\SC(=S)N(CCCCCC(=O)O)C2=O)c2ccccc21	49.5	-0.9%	·	·	0.6
COc1ccc(CN2CCCC(C(=O)c3cccc(OC(C)C)c3)C2)cc1Cn1cccn1 (stereo not drawn)	4.0	-3.3%	·	10.6	4.6
COC(=O)C(C(=O)Nc1cccc(C)n1)C1CCCCCC1 (stereo not drawn)	2.6	3.0%	16.6	-0.5	1.1
CSCC[C@H](NC(=O)c1cccc([N+](=O)[O-])c1C)c1nc2ccccc2[nH]1	2.4	-7.5%	-16.9	-6.4	4.9
COc1cc(C(=O)Nc2cccc(-c3cn4cccnc4n3)c2)cc(OC)c1OC	·	1.9%	·	-17.2	3.9
CSCCC(NC(=O)C1CCC(C)CC1)C(=O)N1CCN(c2ccccn2)CC1 (stereo not drawn)	-1.0	-3.8%	-26.2	-3.3	0.1
CCOC(=O)Cn1c(=O)c(-c2ccccc2NC)nc2ccccc21	2.1	0.7%	1.2	-4.1	-3.4
O=C(O)C1C2CCC(O2)C1C(=O)NCc1ccc(Cl)cc1 (stereo not drawn)	1.4	-4.5%	-42.4	2.2	0.8
CCC(CC)C(=O)Nc1cccc(C(=O)N2CCCCCC2)c1	5.4	-4.3%	9.3	5.6	-1.3
CCCNC(=O)COc1ccc2c(=O)c(Oc3ccccc3F)coc2c1	4.2	-3.0%	-11.8	-5.0	2.5
Cc1cccc(NC(=O)CCNC(=O)c2ccc(Br)cc2)c1	3.0	·	·	·	-1.9
Cc1ccc(C(=O)Nc2ccc(N3CCOCC3)nc2N2CCOCC2)cc1	39.3	-15.1%	·	·	·
Cc1cccc(C)c1-n1cccc1/C=C1\SC(=S)N(c2cccc(C(=O)O)c2)C1=O	6.8	-1.7%	·	-10.2	33.5*
CC1(C)CC(=O)C(C(c2ccccc2F)C2C(=O)CC(C)(C)CC2=O)C(=O)C1	-7.7	-8.3%	-0.8	3.0	-2.1
CCOC(=O)c1c(-c2ccccc2)csc1NC(=O)c1ccc(S(=O)(=O)N2CC(C)OC(C)C2)cc1 (stereo not drawn)	-8.5	-15.6%	-39.3	-2.5	2.3
CCOc1c(Cl)cc(CNc2nnnn2C)cc1OC	-6.3	·	·	·	-2.3
Cc1ccc2c(c1)CCCN2C(=O)Nc1ccc2c(c1)OCO2	52.2	-3.6%	-10.2	-10.5	-0.4
CCOc1ccc2nc(/N=C/c3nc(-c4ccc(Br)cc4)oc3O)sc2c1	94.4	?	-67.6	-8.6	0.0
COCCCn1c(SCc2cccc(OC)c2)nc2cc(OC)c(OC)cc2c1=N	97.8	6.9%	-36.3	-14.2	-2.5
CCCCc1ccc(NC(=S)N2CCN(C(=O)c3ccco3)CC2)cc1	13.0	·	·	·	2.6
Clc1ccccc1C1CC(c2ccccc2)Nc2ncnn21 (stereo not drawn)	7.6	5.4%	-15.8	0.2	2.7	Arbovirus anti repeat=3.8
N#C/C(=C/c1ccccc1[N+](=O)[O-])c1nnc2n1CCCCC2	-5.3	0.6%	-12.4	4.1	-4.4
COc1ccccc1Nc1nnc(SCC(=O)NC(=O)Nc2ccc3c(c2)OCCO3)s1	2.8	8.3%	-10.1	-22.2	-1.5
O=C(CCn1nc(-c2ccc(Cl)cc2)c2ccccc2c1=O)NN1CCOCC1	7.7	-7.3%	·	·	3.1
COc1ccc(NC(=O)CSc2nnc(-c3cnccn3)n2C)cc1OC	-10.0	·	·	·	-2.2

Some of these compounds in order of number of heavy atoms, low to high:
SMILES	Mtb betalactam	Mtb growth	YopH inh	Arbovirus anti	RecA intein inh	others
CCOc1c(Cl)cc(CNc2nnnn2C)cc1OC	-6.3	·	·	·	-2.3
Cc1cccc(NC(=O)CCNC(=O)c2ccc(Br)cc2)c1	3.0	·	·	·	-1.9
N#C/C(=C/c1ccccc1[N+](=O)[O-])c1nnc2n1CCCCC2	-5.3	0.6%	-12.4	4.1	-4.4
CCCCc1ccc(NC(=S)N2CCN(C(=O)c3ccco3)CC2)cc1	13.0	·	·	·	2.6
CC1(C)CC(=O)C(C(c2ccccc2F)C2C(=O)CC(C)(C)CC2=O)C(=O)C1	-7.7	-8.3%	-0.8	3.0	-2.1
O=C(CCn1nc(-c2ccc(Cl)cc2)c2ccccc2c1=O)NN1CCOCC1	7.7	-7.3%	·	·	3.1
COCCCn1c(SCc2cccc(OC)c2)nc2cc(OC)c(OC)cc2c1=N	97.8	6.9%	-36.3	-14.2	-2.5

(continued)
SMILES	Mtb betalactam	Mtb growth	YopH inh	Arbovirus anti	RecA intein inh	others
Cc1ccc(OCC(=O)N2N=C(C(F)(F)F)CC2(O)C(C)(C)C)cc1C (stereo not drawn)	0.8	-2.1%	-9.8	14.7	0.7
CN1/C(=C\C=C2/SC(=S)N(CC(=O)O)C2=O)C(C)(C)c2ccccc21	24.2	25.1%	·	10.9	·
O=C1CC(c2cccc(Br)c2)C2=C(COC2=O)N1 (stereo not drawn)	0.2	-6.0%	·	4.0	1.4
O=C(Cn1c(CO)nc2ccccc21)Nc1ccccc1Cl	-3.5	-1.6%	·	13.3	-1.1
COc1cc(C2c3[nH]c4ccccc4c3CCN2Cc2cn(C)nc2C)ccc1F (stereo not drawn)	1.0	7.2%	·	-0.4	0.7
Cc1ccc(O)c(NC(=O)c2noc(C(C)C)c2[N+](=O)[O-])c1	-1.1	-13.2%	·	-5.0	-2.5
O=C(Nc1ccc(N2CCN(C(=O)c3ccco3)CC2)cc1)c1ccccc1Br	-12.0	·	·	·	1.6
CCOc1ccc(/C(CCC(=O)O)=N/NC(=S)NC(C)C)cc1	-5.2	-3.3%	·	11.9	1.0
COc1ccc(Cc2c(N)nc(C)nc2N)cc1	3.4	-8.8%	·	-0.1	-2.7
CCCCN(C(=O)c1ccc([N+](=O)[O-])o1)c1c(N)n(CCCC)c(=O)[nH]c1=O	-0.3	·	·	·	-79.7
O=C(NC(=O)N1CCOCC1)c1ccccc1	0.6	-1.1%	-27.7	-1.4	-2.9
COc1cc(CNCc2cc(OC)c(OC)c(OC)c2)cc(OC)c1	4.6	·	·	·	-4.5
C/C(=N\NC(=S)NC1CCCCC1)c1ccc(C#N)cc1	78.7	0.1%	-8.6	11.0	0.0
COc1ccccc1CCNS(=O)(=O)c1ccc(C(=O)O)n1C	-10.1	-13.2%	·	·	-1.4
Fc1cc(F)c(NC(=S)N2CCOCC2)c(F)c1	5.6	·	·	·	4.5
COc1ccc(/C=C(/NC(=O)c2ccccc2OC)C(=O)Nc2ccc(C(=O)O)cc2)cc1	4.8	·	·	·	0.4
CON(C)c1nc(Oc2ccc(=O)[nH]n2)nc(N(C)C)n1	-6.3	-5.7%	-7.9	11.0	3.6
COc1cccc(CN(C)C(=O)c2cc(-c3ccc(F)cc3)nc3ccccc23)c1	13.7	·	·	·	15.3
CCCCNC(=O)c1c(N)n(/N=C/c2ccccn2)c2nc3ccccc3nc12	61.6	·	-43.3	-3.7	-2.3
Cc1occc1-c1nnc(SCC(=O)Nc2nccs2)n1CCc1ccccc1	-7.0	1.5%	-34.5	-0.7	3.1
COc1ccc(NC(=O)Cc2nnc(SCC(=O)NC3=NCCS3)n2C)cc1	-1.8	·	·	·	-1.0
Cc1ccc(C)c(S(=O)(=O)N2CCN(C(=O)c3ccc(C)s3)CC2)c1	-7.0	·	·	·	4.1
CC(=O)C1C(c2ccncc2)NC(=O)NC1(O)C(F)(F)F (stereo not drawn)	-5.9	-11.1%	26.1	2.2	2.8
CCN(CC)S(=O)(=O)c1ccc(NS(=O)(=O)c2ccc3oc(=O)[nH]c3c2)cc1	0.7	·	·	·	2.1
Cc1ccccc1NC(=O)CN1C(=O)N/C(=C\c2ccc(N3CCOCC3)c(F)c2)C1=O	-0.4	-6.0%	·	-13.9	-5.4
CCNC(=O)CN(c1ccc(OC)c(OC)c1)S(=O)(=O)c1ccccc1	-4.8	-4.6%	-1.7	1.1	-2.2
CCOC(=O)COc1ccc(Oc2nc(C)cc(OC)n2)nn1	-6.2	-3.6%	-37.4	5.1	-0.6
Cc1ccc(NC(=O)c2sc3nc(N4CCOCC4)c4c(c3c2N)CC(C)(C)OC4)cc1	8.8	·	·	·	-14.3
CCn1c(C)c(C)c2cc(C(=O)NCCCN3CCN(C)CC3)ccc21	2.0	·	·	·	-0.6
COc1ccc(S(=O)(=O)Nc2ccccn2)cc1	-6.3	·	·	·	-3.4
COc1ccc(C(=O)NC(C)c2nnc(SCC(=O)NC3=NCCS3)n2C)cc1 (stereo not drawn)	-3.3	·	·	·	-0.1
O=C(NCCC1CCCCN1S(=O)(=O)c1cccs1)C(=O)Nc1ccc(F)cc1 (stereo not drawn)	-8.5	·	·	·	-2.7
Cc1cc(OC(C)C(=O)NCc2cccnc2)c2c3c(c(=O)oc2c1)CCC3 (stereo not drawn)	3.8	·	·	·	-0.7
CCS(=O)(=O)c1nc(S(=O)(=O)c2ccc(Cl)cc2)c(N2CCC3(CC2)OCCO3)s1	0.9	·	·	·	-9.7
CN(C)S(=O)(=O)c1cccc(NC(=O)CSc2nncn2-c2ccccc2)c1	6.3	0.1%	·	8.7	-1.0
COC(=O)c1cn(CC(=O)NC2CCCCC2)c2ccccc12	-3.7	-10.6%	-18.0	-17.8	1.1
NC(=O)Nc1ccc(C(=O)OCC(=O)Nc2ccc(Cl)cc2C(=O)c2ccccc2)cc1	1.5	9.2%	-12.7	-7.3	-0.2
CCc1cc2c(=O)n(Cc3ccccc3)c(SC3CCOC3=O)nc2s1 (stereo not drawn)	-8.2	-2.8%	·	4.1	-0.3
Cc1ccc(SCC(=O)NCc2ccc(F)cc2)cc1	-8.4	-7.1%	·	-7.9	-2.2
CC1CCCC(C)N1C(=O)COC(=O)CCC1CCCC1 (stereo not drawn)	61.3	·	·	·	0.1
CCCc1nc(SC)[nH]c(=O)c1C	4.2	3.0%	·	·	-4.3
CCN(CC)S(=O)(=O)c1cccc(NC(=O)COC(=O)/C=C/c2cccs2)c1	-2.3	8.5%	·	·	3.4
CN(C(=O)COC(=O)c1ccccc1C(=O)N(C)c1ccccc1)c1ccccc1	11.1	·	·	·	1.0
